# Screening results: PubChem, PCMD
# Biofilm kill mix – mixture kills Candida albicans biofilm cells. C. albicans biofilm persisters + clotrimazole, fluorescence viability; primary screen in compound mixtures of four per well. inhibition, % at 7.6 µM. 0.02% of 120,000 active. AID 1242;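 active means inhibition above 30.3% in the primary screen of four-compound pools, then above 30% when the compound was retested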;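 further: compounds exposed to preformed 24 h biofilms for 48 h; the number belongs to the whole pool; some results filed as inactive read as strong as hits; inactives centre near 12; 0% = biofilm with clotrimazole alone and 100% = kill control; retested singly at about 60 µM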
#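 Probe or stimulus – Clotrimazole 50 µg/mL co-treatment · System – C. albicans biofilms · Schedule – 24 h biofilm formation, then 48 h compound exposure, 37 °C · Evaluation – percent inhibition of biofilm viability · Technique – 2-h Alamar Blue fluorescence, 535/590 nm excitation/emission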
# Starred values were filed as active, the others as inactive.
compound	Biofilm kill mix
c1ccc(-c2nc(-c3cccnc3)n[nH]2)cc1	12
CC(=O)OCC(=O)[C@@]1(O)CC[C@H]2[C@@H]3CCC4=CC(=O)C=C[C@]4(C)[C@H]3[C@@H](O)C[C@@]21C	12
Cc1cccc(C(=O)N/N=C/c2ccccn2)c1	-1
Cc1ccc(N2CCN(C(=O)c3ccccc3NC(=O)C3CCCCC3C(=O)O)CC2)cc1 (stereo unspecified)	16
O=C(O)c1ccc(N2C(=O)c3cccc4c(C(=O)O)ccc(c34)C2=O)cc1	3
COc1ccc(NC(=S)Nc2ccc3nccnc3c2)cc1	19
NC(=O)C1CCN(CC(=O)Nc2cccc(C(=O)Nc3cccc(C(F)(F)F)c3)c2)CC1	13
O=C(O)c1cc(NS(=O)(=O)c2ccc(N3CCCCC3)c([N+](=O)[O-])c2)cc(C(=O)O)c1	14

# 2 of these compounds in another layout.
compound: c1ccc(-c2nc(-c3cccnc3)n[nH]2)cc1
  Biofilm kill mix: 12
compound: CC(=O)OCC(=O)[C@@]1(O)CC[C@H]2[C@@H]3CCC4=CC(=O)C=C[C@]4(C)[C@H]3[C@@H](O)C[C@@]21C
  Biofilm kill mix: 12

# Carrying on.
compound	Biofilm kill mix
O=C(O)CCN1C(=O)C2C3c4ccccc4C(c4ccccc43)C2C1=O (stereo unspecified)	15
CCCc1[nH]n(-c2nc3ccccc3s2)c(=O)c1C=NCCCOC	5
C=CCNS(=O)(=O)c1cc(S(=O)(=O)NCC=C)c(OC)cc1OC	6
CC(=O)Nc1ccc(C(=O)OCC(=O)Nc2ccc(N3CCOCC3)cc2)cc1	14
CCOC(=O)CSc1nc2ccccc2c(=O)n1CC1CCCC1	2
Cc1cc(C)c(S(=O)(=O)N2CCN(CCN3C(=O)c4cccc5cccc(c45)C3=O)CC2)cc1[N+](=O)[O-]	23
COc1cccc(-n2c(=S)sc3c(=O)n(-c4ccccc4OC)c(=S)[nH]c32)c1	8
CC(NC(=O)C1CCC1)c1ccc(Br)cc1 (stereo unspecified)	15
CCOC(=O)C1(CCc2ccccc2)CCN(C(=O)CN2C(=O)CSC2=O)CC1	18
Cc1ccccc1Oc1nc2c(C)cccn2c(=O)c1/C=C(\C#N)C(=O)Nc1c(C)n(C)n(-c2ccccc2)c1=O	12
CCCC(=O)Nc1ccc(Oc2ccc(NC(=O)CCC)cc2)cc1	17
CCCN(CC1CCCO1)C(=O)CCc1nnc(-c2cc(C)on2)o1 (stereo unspecified)	5
COC(=O)c1ccc(NC(=O)CSc2nnnn2C2CCCCC2)cc1	9
COc1cccc(CNC(=O)CCC2CCCN(C(=O)c3ccc(OC)o3)C2)c1 (stereo unspecified)	12
O=C(Nc1ccc(F)cc1)c1nsc(Cl)c1Cl	17
COc1ccc(C2COC(=O)C2=N)c(NC(=O)c2ccc(Cl)cc2)c1 (stereo unspecified)	-5
O=c1cc(CSc2nc3ccccc3c(=O)[nH]2)c2ccc(O)cc2o1	-2
O=C(Nc1ccccc1)C1CCCN1C(=O)NCc1ccccc1 (stereo unspecified)	2
CC(C)c1ccc(NC(=O)NN2CCOCC2)cc1	10
Cc1nn(CC(=O)Nc2ccncc2)c(C)c1[N+](=O)[O-]	7
CCN(C(=O)COC(=O)c1cncc(Br)c1)C1CCS(=O)(=O)C1 (stereo unspecified)	13
COc1ccc(-n2c(=S)[nH]c3cc(C(=O)Nc4cccc(C)c4)ccc3c2=O)cc1	20
C=CC(=O)NC1CC2CCC1(C)C2(C)C (stereo unspecified)	11
CCSc1nc2ccccc2n1C(=O)c1ccc(S(=O)(=O)N2CCCCCC2)cc1	17
Cn1c(NN)nc2sc3c(c2c1=O)CC(C)(C)OC3	9
CCOC(=O)c1nc(Nc2ccccc2C)c2ccccc2n1	7
Cc1ccsc1C(=O)Nc1n[nH]c(C(F)(F)F)n1	6
Cc1ccccc1OCC(=O)NCC(=O)N/N=C/c1ccc(Br)o1	17
COc1ccc(CCN2C(=O)CS/C2=N\NC(=O)c2cccs2)cc1OC	5
S=C(Nc1ccccc1)N1CCN(C(=S)c2ccccc2)CC1	14
CC(=O)OC1OCCOC1NC(=S)Nc1ccc(C)cc1 (stereo unspecified)	14
COc1ccc(OCCC(=O)Nc2nccs2)cc1	3
Cc1ccc(NC(=S)Nc2cccc3cnccc23)cc1	-11
Cc1ccc(C)c(NC(=O)c2cc(-c3ccccc3)nn2-c2ccccc2)c1	16
CCN1C(=O)C(CC(=O)Nc2ccc(OC)cc2)N(CCc2ccc(OC)cc2)C1=S (stereo unspecified)	16
COc1ccc(C(=O)c2sc3nc(C)cc(-c4cccs4)c3c2N)cc1	7
FC(F)(F)C(F)(F)c1nnc2ccc(-n3ccnc3)nn12	1
CC(NCc1ccccc1Cl)C(=O)Nc1ccc(C#N)cc1 (stereo unspecified)	8
O=C(NC(c1ccc(Cl)cc1)c1c(O)ccc2ccccc12)c1ccccc1 (stereo unspecified)	6
Cc1ccc(Cl)cc1NC(=S)N(CCCN1CCN(C)CC1)Cc1cccs1	7
COc1ccc(C2=C(c3ccc([N+](=O)[O-])cc3)C(=O)OC2)cc1	9
COCCCNc1oc(-c2cccs2)nc1S(=O)(=O)c1ccc(C)cc1	-12
O=C(CSc1nnc(NC2CCCCC2)s1)NN1C(=O)NC2(CCCCC2)C1=O	12
COc1ccc(NC(=O)c2sccc2C)cn1	21
CC(=O)N(C(C)=O)n1c(C)nc2sc3c(c2c1=O)CCCC3	11
CC1=C(C(=O)OCC2CCCO2)C(c2coc3ccc(Cl)cc3c2=O)C2=C(CCCC2=O)N1 (stereo unspecified)	10
CC(C)(C)SCCNC(=O)c1cccc([N+](=O)[O-])c1	10
COc1ccc(N)c2c1C(=O)c1ccccc1C2=O	5
Cc1ccc(NC(=S)N2CCCCC2)cc1C	17
O=C(CCC(=O)Nc1ccccc1Cl)N/N=C/c1c[nH]c2ccccc12	14
O=C(N/N=C/c1coc2ccccc2c1=O)c1ccccc1Br	4
O=C(NCc1ccccc1)NC1CCS(=O)(=O)C1 (stereo unspecified)	-9
O=C(c1ccc(Cl)c([N+](=O)[O-])c1)N(c1ccccn1)c1ccccn1	17
Cc1nn(C)c(C)c1NC(=O)C12CC3CC(CC(C3)C1)C2	12
COc1cc(NC(=O)Cn2cnc3ccccc3c2=O)c(OC)cc1Cl	4
CS(=O)(=O)c1nc(S(=O)(=O)c2ccc(Cl)cc2)c(NCc2ccccn2)s1	-3

# More structures
compound	Biofilm kill mix
O=C(O)/C=C\C(=O)Nc1ccc(N2CCN(c3cccc(Cl)c3)CC2)cc1	7
COC(=O)c1ccc(S(=O)(=O)N2CCC(C(N)=O)CC2)n1C	19
Cc1cccc(Oc2ccc(S(=O)(=O)N3CCCCC3)cc2N)c1	22
COc1ccc(C(=O)OCn2nnc3ccccc3c2=O)cc1	28
CCOC(=O)N1CCN(C(=S)NC(=O)c2c(-c3c(Cl)cccc3Cl)noc2C)CC1	12
O=C(c1cnn2c(C(F)(F)F)cc(-c3cccs3)nc12)N1CCCC1	26
CNc1nc2[nH]c(=O)c3c(c2s1)OC(N)=C(C#N)C3c1ccccc1 (stereo unspecified)	16
Cn1cnnc1-c1cccc(NC(=O)c2cc(F)c(F)cc2Cl)c1	10
COC(=O)c1c([N+](=O)[O-])c(OC)c(OC)c(OC)c1[N+](=O)[O-]	-12
CC(=O)Nc1ccc(SCC(=O)Nc2cc(C)on2)cc1	-8
Cc1ccc(OCC(=O)N(c2ccccn2)C2CCCCC2)c(C)c1	13
CCOC(=O)Cn1nc(C)cc1NC(=O)c1cccnc1	6
CC1CCc2cc(F)ccc2N1C(=O)CCl (stereo unspecified)	16
Cc1ccc(NC(=O)CSc2nc3ccccc3c3nc(CCn4cncc4C)nn23)c(C)c1	15
O=C(COC(=O)Cc1ccccc1F)Nc1ccc(F)cc1F	4
Cc1ccc(NC(=O)c2ccc(F)cc2)nc1	19
Cc1ccc(-c2c[n+](CC(=O)c3cccs3)c3n2CCC3)cc1	-8
CCc1ccc(/C=C2\Oc3cc(OS(C)(=O)=O)ccc3C2=O)cc1	18
CCC(C(=O)OCn1nnc2ccccc2c1=O)c1ccccc1 (stereo unspecified)	25
O=C(CN1N=C(c2ccccc2)CCC1=O)NCCN1CCc2ccccc2C1	26
Cc1ccc(C2CC(=O)C(C=NCCN3CCN(C(=S)Nc4ccc(F)cc4)CC3)=C(O)C2)cc1 (stereo unspecified)	12
O=C(CSc1ncccn1)N1CCN(Cc2ccccc2)CC1	15
CN1CCN(C=NC2=NN(c3cccc(C(F)(F)F)c3)CC2)CC1	16
S=C(NCCc1ccccc1)N1CCn2cccc2C1c1ccncc1 (stereo unspecified)	11
Cc1nc2ccccn2c1C(=O)N/N=C/c1ccc(CNC(=O)C(=O)Nc2ccccc2)o1	-3
CCCCn1c(=N)n(CC(O)c2ccccc2)c2ccccc21 (stereo unspecified)	0
N=c1n(CC(=O)c2ccc([N+](=O)[O-])cc2)c2ccccc2n1Cc1ccccc1	12
O=C(Nc1ccc(Cl)c(Cl)c1)N(CCCN1CCOCC1)Cc1cccnc1	22
Cc1cc(/C=C/C(=O)O)c(C)n1-c1ccc(Cl)cc1	5
COc1ccc(-c2nnn(CC(=O)N(CC3CCCO3)C(C(=O)NC(C)(C)C)c3ccco3)n2)cc1OC (stereo unspecified)	18
O=c1ccnc(Nc2ccc(Cl)cc2)[nH]1	7
COc1ccc(OCc2nc3ccccc3n2C(C)C)cc1	19
COCCNC(=O)CN(c1cc(Cl)ccc1OC)S(=O)(=O)c1ccc(C)c([N+](=O)[O-])c1	2
CCOC(=O)c1c(NC(=O)COc2ncnc3ccccc23)sc(C(C)=O)c1C	14
COc1ccc(CCNC(=O)Cn2nnc(-c3ccc(N(C)C)cc3)n2)cc1OC	11
Brc1ccc2[nH]c3c(c2c1)CCC3	18
Cc1ccc2nc(SC(C)C(=O)N3CCCCC3)[nH]c2c1 (stereo unspecified)	8
COc1ccccc1-c1nnc(NC(=O)c2ccc3ncsc3c2)o1	7
COc1ccccc1NC(=O)COc1cc(Br)c(CNCCCN2CCOCC2)cc1OC	2
COc1cc(C(=O)NC(=S)NNC(=O)c2ccc3c(c2)OCO3)cc(OC)c1OC	15
CC(c1nnc(SCC(=O)Nc2cccnc2Cl)n1-c1ccccc1)N(C)C (stereo unspecified)	-4
O=C(Cn1nnc(-c2cccs2)n1)NCc1cccs1	17
O=C(Nc1ccccc1)C(O)C(O)C(=O)Nc1ccccc1 (stereo unspecified)	34
Cc1c(C(=O)Nc2ccc(F)cc2)nnn1-c1cccc(C(F)(F)F)c1	4
O=C(Nc1cc(C(F)(F)F)ccc1Cl)C(Sc1ccccn1)c1ccccc1 (stereo unspecified)	27
Cc1ccc(Oc2cc(-n3nc(C)cc3C)ncn2)cc1	9
CCCCCc1ccc(-c2ccc(OC)cc2)nc1	4
COc1ccc(CCNC(=O)CSc2nc(C)cc(C)n2)cc1OC	16
Cc1nc2nc(SCc3nc4ccccc4[nH]3)[nH]c2cc1Br	21
NC(=O)[C@@H]1CCCN1Cc1nc(Cc2ccccc2Cl)no1	16
COc1ccc(C(=O)N(C)Cc2ccccc2)cc1Br	18
CCN1C(=O)/C(=C\N(C)C)S/C1=N\S(=O)(=O)c1ccc(C)cc1	10
Cc1ccc(CNC(=O)c2ccc(COc3ccccc3)cc2)cc1	13
COc1cccc(Cl)c1NC(=O)N1CCN(c2ccnc3cc(Cl)ccc23)CC1	28
COc1ccc(OC)c(NC(=S)NCCSc2ccc(C)cc2)c1	24
Cc1cccc(OC(C)C(=O)N2CCCc3ccccc32)c1 (stereo unspecified)	-12

# Next entries follow:
compound	Biofilm kill mix
CCOc1ccccc1NC(=S)NC1CCCCC1	14
Cc1cc(N2CCN(Cc3cn(C)nc3-c3cccc(Cl)c3)CC2)cc(C)n1	26
COC(=O)c1c(N2C(=O)[C@H]3[C@@H](C2=O)[C@]2(C(=O)Nc4ccccc42)N2CCC[C@@H]32)sc(C)c1C	18
CN(C)c1nc(Cl)nc(NCCOc2ccccc2)n1	2
Cc1ccc(NC(=S)NC2CCN(Cc3ccccc3)CC2)cc1C	20
COc1cc(-c2ccc(NC(C)=O)c(OC)c2)ccc1NC(C)=O	3
O=C(CSc1ccc(-c2ccco2)nn1)NCc1ccc(Cl)cc1	4
COc1ccc(CN(CC(=O)NC2CCCC2)C(=O)CCC(=O)Nc2cc(C)on2)cc1	11
O=C(CC(=O)NN=C1CCCCCC1)NCc1cccnc1	15
O=C(CSCc1ccc(Br)cc1)NCc1ccccn1	8
Cc1cccc(NC(=O)CCC(=O)N/N=C/c2cc([N+](=O)[O-])ccc2O)c1	2
CCn1ncc(NC(=S)Nc2ccc3c(c2)OCO3)c1C(N)=O	12
O=C(O)CC/C(=N\Nc1ccc([N+](=O)[O-])cc1)c1ccccc1	19
Cn1cc(Cl)c(-c2n[nH]c(=S)n2-c2ccccc2)n1	9
COc1ccccc1C(=O)N1CCN(Cc2nc3cc([N+](=O)[O-])ccc3n2C)CC1	6

# Some of the entries so far, field by field.
O=C(O)CC/C(=N\Nc1ccc([N+](=O)[O-])cc1)c1ccccc1
  Biofilm kill mix: 19

Cn1cc(Cl)c(-c2n[nH]c(=S)n2-c2ccccc2)n1
  Biofilm kill mix: 9

COc1ccccc1C(=O)N1CCN(Cc2nc3cc([N+](=O)[O-])ccc3n2C)CC1
  Biofilm kill mix: 6

# The list is partial; the hit share may differ from the screen's.
